Source: PubChem BioAssay (Fisher Drug Discovery Resource Center)
NPYLR7 agonist – activates Aedes aegypti NPYLR7 receptor; 270,000 compounds, 0.15% hits; activation, % at 10 µM; HEK293T NPYLR7/Galpha15, GCaMP6s calcium fluorescence; in the data active = activation above about 40%;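 also: 0% = vehicle and 100% = reference agonist at the receptor; some compounds past the cut are filed as inactive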
NPYLR7 agonist max-min – second read-out of NPYLR7 agonist, no call of its own (marks repeat the call); activation, %; measured here: Max-Min RFU normalised activation; some inactives read as strong as hits;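 span of the calcium signal over five minutes; 0% = vehicle and 100% = native peptide agonist; compound fluorescence can raise it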
An asterisk follows results filed as active.

[1] CCC(C)C(N)C(=O)Nc1nnc(-c2cccc(C)c2)s1 (stereo not given)
[2] CCCn1cc(CN2CCC(N3CCCC3=O)CC2)c(C)n1
[3] O=C(NCCCOc1cccc([N+](=O)[O-])c1)C1CC[C@@H]2CCC[C@H]12 (stereo not given in full)
[4] Cc1ccnc(NC(=O)CCCn2c(=O)oc3cc([N+](=O)[O-])ccc32)c1
[5] COCC(=O)Nc1ccc(N(C)C)c(CN(C(=O)c2ccccc2Cl)C(C)c2ccccc2)c1 (stereo not given)
[6] CCOC(=O)c1ccc(NC(=O)CC2Nc3cccc4cccc(c34)NC2=O)cc1 (stereo not given)
[7] Cc1cc(C)n(-c2ccc3n[nH]c(=O)n3n2)n1
[8] Cc1ccc(C(=O)N(CC(N)=O)[C@H](C)c2ccccc2)cc1C
[9] C=CCn1c(=NC(=O)c2ccc(S(C)(=O)=O)cc2)sc2cc(S(C)(=O)=O)ccc21
[10] O=C(c1coc(COc2cccc3cccnc23)n1)N1CCSCC1

screen / no.	1	2	3	4	5	6	7	8	9	10
NPYLR7 agonist	-9	7	-8	4	-1	-3	-6	3	5	-3
NPYLR7 agonist max-min	-15	7	-18	-1	2	3	-9	0	1	-4

[11] Cc1ccc(C2CC(c3ccccc3F)=NN2C(=O)CN2CCOCC2)c(C)c1 (stereo not given)
[12] CC(C)(C)c1cc(NS(=O)(=O)c2ccc(Br)cc2)n[nH]1
[13] COc1cc(C)c(S(=O)(=O)NNC(=O)c2cc(C)oc2C)cc1C
[14] CN(c1nccs1)S(=O)(=O)/C=C/c1ccccc1
[15] CCOCCCNC(=O)c1cc(NC(=O)c2ccc(-c3ccccc3)cc2)ccc1N1CCC(Cc2ccccc2)CC1
[16] CCOC(=O)c1c(NC(=O)c2cccs2)c(-c2cccc(F)c2)cn1Cc1ccccc1
[17] COc1ccc(C(N)CC(=O)N2C[C@@H]3[C@@H]4CC[C@@H](C4)[C@@H]3C2)cc1OC (stereo not given in full)
[18] CCS(=O)(=O)NC(=O)C1(C)CCN1C(=O)c1ccc(C2CCCCC2)cc1 (stereo not given)
[19] COc1ccccc1-c1cc(C(=O)NCC(C)C)n2nc(-c3ccccc3)cc2n1
[20] O=C1CCCN1Cc1ccccc1CNC(=O)C12CNCC1CNC2 (stereo not given)

screen / no.	11	12	13	14	15	16	17	18	19	20
NPYLR7 agonist	24	2	1	-1	18	5	8	-1	4	19
NPYLR7 agonist max-min	25	19	6	1	14	2	5	-4	1	6

[21] O=S1(=O)N=C(Nc2ccc(F)cc2F)c2ccccc21
[22] Cc1ccccc1NC(=O)Nc1ccccc1-c1nc2cc(Cl)ccc2o1
[23] O=S(=O)(c1cccc(Cl)c1Cl)N(Cc1ccc(F)cc1)C1CC1
[24] CCOC(=O)c1c(C)[nH]c(C(=O)OCC(=O)N(CC(C)C)C2CCS(=O)(=O)C2)c1C (stereo not given)
[25] COCCn1cc(C(=O)NCCc2ccc(OC(C)C)cc2)ccc1=O
[26] Cc1ncc2c(c1CNc1nccc(CCC(F)(F)F)n1)CCNC2
[27] CN(CCc1noc(C2CC2)n1)C(=O)c1scc2c1CCCC2
[28] Cc1cc(NC(=O)C(C)Oc2ccccc2)n(-c2ncnc3c2cnn3-c2cccc(Cl)c2)n1 (stereo not given)
[29] O[C@@H]1C[C@@H](c2nc(Cc3ccccc3)no2)N(Cc2ncc[nH]2)C1
[30] COc1cc(CNC(=O)Cn2cc(C)cn2)ccc1OCCN(C)C

screen / no.	21	22	23	24	25	26	27	28	29	30
NPYLR7 agonist	2	-3	2	-4	2	20	2	12	-9	-2
NPYLR7 agonist max-min	5	11	8	-7	1	17	-1	11	-15	-4

[31] O=C(NCC1(Cn2cccn2)CC1)C1CNCCO1 (stereo not given)
[32] COc1cccc(-c2nc(C=Nc3ccccc3Br)c(O)o2)c1
[33] CCn1nc(C)cc1C(=O)N1CCC(C(=O)Nc2ccc(-n3nc(C)cc3C)cc2)CC1
[34] COc1nc2nc(N)nc(N)c2nc1C
[35] CC(C)CCCN=Cc1c(O)n(C)c(=O)n(C)c1=O
[36] Cc1nc(COC(=O)c2cc3ccccc3cc2O)oc1C
[37] O=C(NN=Cc1cccs1)C12CC3CC(CC(C3)C1)C2
[38] Cc1ccn2c(CNC3CCN(S(C)(=O)=O)CC3C)cnc2c1 (stereo not given)
[39] CCNC(=O)CCc1csc(NC(=O)c2ccc[nH]c2=O)n1
[40] CCc1ccc(CN(C)CN2C(=O)CC(C)C2C)cc1 (stereo not given)

screen / no.	31	32	33	34	35	36	37	38	39	40
NPYLR7 agonist	2	-3	21	3	8	0	11	4	-5	-7
NPYLR7 agonist max-min	0	-6	14	2	4	1	3	3	-10	-12

[41] C=CCSc1nnc2c(n1)OC(C)(C)Nc1ccccc1-2
[42] CC1CCN(c2ccc(NC(=O)Nc3cccc(Cl)c3)cc2C(=O)NC(C)c2ccccc2)CC1 (stereo not given)
[43] COCCN(Cc1nccn1Cc1ccc(C(F)(F)F)cc1)C(=O)c1ccc(F)cc1
[44] Cc1nn(-c2ccccc2)c(N)c1-c1ccc(S(C)(=O)=O)cc1
[45] COc1cc(OC)c(C2NC(=O)NC(C)=C2C(=O)Nc2cccc(Cl)c2)cc1OC (stereo not given)
[46] CNC(=O)c1ccc(S(=O)(=O)N2CCc3sccc3C2C)cc1 (stereo not given)
[47] FC(F)(F)c1nnc2ccc(Nc3cnn(CC4CCCO4)c3)nn12 (stereo not given)
[48] Cc1ccc(N2CN(CCO)Cn3c2nc(C)c(C)c3=O)c(C)c1
[49] S=c1oc(-c2ccco2)nn1CN1CCN(c2cccc(Cl)c2)CC1
[50] COc1ccc(-n2c(C)c(C)n3c4c(=O)n(C)c(=O)n(C)c4nc23)cc1Cl

screen / no.	41	42	43	44	45	46	47	48	49	50
NPYLR7 agonist	15	-3	7	-3	0	-1	3	-4	0	0
NPYLR7 agonist max-min	4	3	13	-4	-5	-1	13	-11	-1	28

[51] CCc1nc2ccc(C(=O)NCc3ccc4c(c3)OCO4)cn2c1N(CCN(C)C)CC1CC1
[52] Cc1nc(C)n(-c2ccc(C(=O)Nc3n[nH]c(C4CC4)c3C)cc2)n1
[53] CC(/C=C1\N=C(c2cccc(F)c2)OC1=O)=C\c1ccccc1
[54] S=c1sc2c(N3CCOCC3)ncnc2n1-c1ccccc1
[55] Nc1nc(Cl)nc2c1ncn2[C@@H]1O[C@H](COP(=O)(O)OP(=O)(O)OP(=O)(O)O)[C@H](O)C1O (stereo not given in full)
[56] CC1CCCN(Cc2nc3scc(-c4ccccc4)c3c(=O)[nH]2)C1 (stereo not given)
[57] O=C(Cn1cnnn1)N1CCC(N2CCCC(C(=O)N3CCCC3)C2)CC1 (stereo not given)
[58] Cn1ccnc1SCc1cc(=O)c(OC(=O)c2ccc(S(=O)(=O)N3CCCC3)cc2)co1
[59] C=CCNc1nnc(C)c(=O)[nH]1
[60] COC(=O)C(C(=O)OC)c1ccc(C(c2ccccc2)C(C(=O)OC)C(=O)OC)cc1 (stereo not given)

screen / no.	51	52	53	54	55	56	57	58	59	60
NPYLR7 agonist	-4	-1	11	2	129*	-9	3	-4	11	-1
NPYLR7 agonist max-min	-9	-2	13	2	91*	-16	-9	-6	6	34

[61] O=C(COC(=O)C1CC2CCCC(C1)C21SCCS1)NC(=O)NC1CCCCC1 (stereo not given)
[62] Cc1ccccc1CC(=O)N1CCC(CCC(=O)NC2CC2)CC1
[63] COCC(C)Nc1ncnc2c1c(-c1ccccc1)cn2-c1ccc(Br)cc1 (stereo not given)
[64] Cc1cccc(-n2nnnc2SCc2cc(C)no2)c1

screen / no.	61	62	63	64
NPYLR7 agonist	4	4	1	3
NPYLR7 agonist max-min	2	0	2	1

Excerpt, nos. 51 to 64
[51] CCc1nc2ccc(C(=O)NCc3ccc4c(c3)OCO4)cn2c1N(CCN(C)C)CC1CC1
[52] Cc1nc(C)n(-c2ccc(C(=O)Nc3n[nH]c(C4CC4)c3C)cc2)n1
[53] CC(/C=C1\N=C(c2cccc(F)c2)OC1=O)=C\c1ccccc1
[54] S=c1sc2c(N3CCOCC3)ncnc2n1-c1ccccc1
[55] Nc1nc(Cl)nc2c1ncn2[C@@H]1O[C@H](COP(=O)(O)OP(=O)(O)OP(=O)(O)O)[C@H](O)C1O (stereo not given in full)
[56] CC1CCCN(Cc2nc3scc(-c4ccccc4)c3c(=O)[nH]2)C1 (stereo not given)
[57] O=C(Cn1cnnn1)N1CCC(N2CCCC(C(=O)N3CCCC3)C2)CC1 (stereo not given)
[58] Cn1ccnc1SCc1cc(=O)c(OC(=O)c2ccc(S(=O)(=O)N3CCCC3)cc2)co1
[59] C=CCNc1nnc(C)c(=O)[nH]1
[60] COC(=O)C(C(=O)OC)c1ccc(C(c2ccccc2)C(C(=O)OC)C(=O)OC)cc1 (stereo not given)
[61] O=C(COC(=O)C1CC2CCCC(C1)C21SCCS1)NC(=O)NC1CCCCC1 (stereo not given)
[62] Cc1ccccc1CC(=O)N1CCC(CCC(=O)NC2CC2)CC1

screen / no.	51	52	53	54	55	56	57	58	59	60	61	62
NPYLR7 agonist	-4	-1	11	2	129*	-9	3	-4	11	-1	4	4
NPYLR7 agonist max-min	-9	-2	13	2	91*	-16	-9	-6	6	34	2	0

[63] COCC(C)Nc1ncnc2c1c(-c1ccccc1)cn2-c1ccc(Br)cc1 (stereo not given)
[64] Cc1cccc(-n2nnnc2SCc2cc(C)no2)c1

screen / no.	63	64
NPYLR7 agonist	1	3
NPYLR7 agonist max-min	2	1

A portion of the library (hit frequency here may not be typical).
